FGF22 binding – FGF22 (human) thermal shift binding. calls only at 9.99 µM. 340,000 compounds, 1.5% hits. recombinant FGF22 thermal shift, SYPRO orange fluorescence; percent of sucrose octasulfate shift, DMSO zero;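 active = melting point raised past a set limit in the mean and every replicate; inconclusive = no clear call; three in four hits are not shown here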
Target sequence (Q9HCT0 whole entry, looked up): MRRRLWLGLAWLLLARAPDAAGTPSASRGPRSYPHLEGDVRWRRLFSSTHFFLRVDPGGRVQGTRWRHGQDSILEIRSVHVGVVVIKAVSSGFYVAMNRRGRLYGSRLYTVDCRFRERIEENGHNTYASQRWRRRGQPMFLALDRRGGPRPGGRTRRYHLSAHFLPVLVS
ALR H2O2 inh – human ALR oxidase inhibition via reduced H2O2. purified ALR, DTT oxidation, H2O2 HRP-luminol luminescence. inhibition, % (test concentration not listed). 290,000 compounds, 3.8% hits. AID 485317;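 active = mean and each replicate at 75% or more; inconclusive = only one of the two met; inactive = neither met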;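 also: stock transfer was 7.5 nL into about 7.5 µL; 0% = neutral wells and 100% = wells with inactivated enzyme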
Ecoli growth – E. coli growth inhibition; OD600 absorbance (no concentration beside the values); 330,000 compounds, 0.21% hits; Escherichia coli growth, OD600, 23 h; stronger effect = lower value; AID 1053175;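 active = OD600 absorbance below the run mean of sample wells minus 3.6 SD, in any replicate, cut at about 0.56 in these data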;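 also: stock transfer was 300 nL into about 60 µL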
UCH37 inh – blocks the human deubiquitinase UCH37 | AID 588478 | purified proteasome/UCH37, Ub-AMC cleavage fluorescence | inhibition, % (no concentration beside the values) | 330,000 compounds, 0.33% hits;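 active = mean of two replicates above 20%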;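 also: 0% = compound-free wells with enzyme and 100% = wells lacking proteasome; stock transfer was 100 nL into about 20 µL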
Target sequence (Q9Y5K5 whole entry, looked up): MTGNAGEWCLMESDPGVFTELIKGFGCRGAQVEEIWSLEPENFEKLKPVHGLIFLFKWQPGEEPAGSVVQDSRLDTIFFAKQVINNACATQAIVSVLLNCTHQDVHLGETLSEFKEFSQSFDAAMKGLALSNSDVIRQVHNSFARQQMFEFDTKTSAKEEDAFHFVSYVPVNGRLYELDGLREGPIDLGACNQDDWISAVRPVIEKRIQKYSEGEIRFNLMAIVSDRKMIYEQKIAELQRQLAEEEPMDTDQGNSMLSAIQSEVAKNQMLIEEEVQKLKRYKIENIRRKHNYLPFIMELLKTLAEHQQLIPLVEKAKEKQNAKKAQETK
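Material: human UCH37 enzyme supplied as purified proteasome complex. Measure: % inhibition of Ub-AMC cleavage fluorescence. Medium: pH 7.4 Tris-HCl (50 mM) with ovalbumin, ATP-MgCl2, DTT. Times: 30 min preincubation with enzyme, 25 min cleavage at room temperature. Detection: AMC fluorescence intensity at 355/460 nm.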
HNF4A DNA FP – change in binding of human HNF4 alpha to DNA; P41235; HNF4a-FITC DNA binding, fluorescence polarization, 1 h; activity change, % at 10 µM; 360,000 compounds, 0.3% hits; in the data active = activity change above about 30%, passing the limit was not always enough;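 also: controls were the assay level and a saturating level of protein; the project sought stronger binding though the title names inhibitors; some compounds called inactive have numbers as strong as hits; positive values seem to mean higher polarization but the record does not say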
LANA-H2B inh – blocks KSHV LANA binding to histone H2A/H2B. cell-free LANA-H2A/H2B peptide, fluorescence polarization. inhibition, % (test concentration not listed). 320,000 compounds, 0.6% hits. AID 2629; in the data active = inhibition mostly above about 10%, no sharp cut-off; inactive = mostly below about 6.7%;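 also: stock transfer was 7.5 nL into about 10 µL; 0% = median of vehicle wells and 100% = median of positive control wells; one replicate is shown; the record names a cut of 25% in any replicate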
B2AR ag – human beta-2 adrenergic receptor agonism by FAP; 340,000 compounds, 0.43% hits; AID 504454; response, % (concentration not given with the values); Am2.2-beta2AR cells, FAP receptor internalization, flow cytometry; reference of the scale not given here;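 active = response above a set limit, near 3 SD of response in nonfluorescent compounds, cut at about 42% in these data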;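 also: stock transfer was 100 nL into about 11 µL; a reference agonist was the positive control; negative values mostly stem from fluorescent compounds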
Target sequence (P07550 whole entry, looked up): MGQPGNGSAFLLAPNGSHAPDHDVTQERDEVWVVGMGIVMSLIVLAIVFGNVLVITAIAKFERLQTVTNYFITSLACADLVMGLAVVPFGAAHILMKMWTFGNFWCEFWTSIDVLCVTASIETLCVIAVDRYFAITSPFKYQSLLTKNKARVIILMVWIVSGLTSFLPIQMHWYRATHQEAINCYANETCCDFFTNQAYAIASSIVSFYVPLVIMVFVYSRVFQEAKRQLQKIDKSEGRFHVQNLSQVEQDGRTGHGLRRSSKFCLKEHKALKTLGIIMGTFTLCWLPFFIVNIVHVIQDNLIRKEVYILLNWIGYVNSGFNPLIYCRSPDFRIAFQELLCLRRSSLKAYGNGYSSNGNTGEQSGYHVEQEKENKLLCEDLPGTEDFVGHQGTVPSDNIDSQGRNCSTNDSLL
* = called active by the depositor; i = inactive; u = inconclusive; x = not tested or not shown.

SMILES	FGF22 binding	ALR H2O2 inh	Ecoli growth	UCH37 inh	HNF4A DNA FP	LANA-H2B inh	B2AR ag
COC(=O)C1CCN(C2CC(=O)N(c3cc(C)cc(C)c3)C2=O)CC1 (centres undefined)	i	x	0.71	5.1	0.4	4.7	6.2
O=C(Cc1cccc(NC(=O)C2CCCN(C(=O)c3ccccc3)C2)c1)Nc1cccc(C(=O)N2CCCCC2)c1 (centres undefined)	x	x	0.712	-2.0	-0.4	x	-6.8
Cc1nn(Cc2ccc(Cl)cc2)c(Cl)c1/C=N/NC(=O)CNc1ccccc1F	x	x	x	x	1.0	0.0	-11.9
O=C(Nc1nc2c(s1)CCCC2)c1cc2n(n1)C(C(F)(F)F)CC(C1CC1)N2 (centres undefined)	x	-1.1	0.68	2.1	3.5	-0.1	-7.8
Cc1ccc2oc(=O)c3cnn(CC(=O)NCCN(C)C)c3c2c1	i	x	0.778	5.1	-1.3	2.2	4.8
Cc1nc(SCC(=O)N2CCN(c3ccccc3)CC2)n[nH]1	i	98.6*	0.665	-0.2	0.0	-1.8	9.8
CN(C(=O)COC(=O)c1cc(S(=O)(=O)N2CCOCC2)c(Cl)cc1Cl)C1CCS(=O)(=O)C1 (centres undefined)	i	1.5	0.671	0.4	-1.0	5.9	7.6
CC(C)c1c(O)cc(-c2ccncc2)n(-c2ccc(Cl)cc2)c1=O	x	6.0	0.69	-2.8	2.3	-2.0	-3.9
COc1ccc(C(=O)COC(=O)CCN2C(=O)[C@@H]3[C@H](C2=O)[C@@H]2C[C@H]3C(Br)C2Br)cc1 (some centres undefined)	x	4.5	0.618	2.1	-1.1	-6.5	-5.1
CC1CCCC(NC(=O)CCS(=O)(=O)c2ccc3c(c2)NC(=O)CS3)C1C (centres undefined)	i	-3.3	0.693	3.6	4.1	0.8	-5.2
O=C(Nc1cccc(-c2nc3ccccc3[nH]2)c1)c1ccccn1	i	0.1	0.687	2.8	-1.7	2.4	1.0
O=C(COC(=O)c1ccc(Cl)nc1)Nc1ncc(Cl)cc1Cl	i	9.9	0.678	2.0	-1.1	4.1	-4.5
Cc1ccccc1CN(c1ccc(C(=O)N/N=C/c2ccc(OCC(N)=O)cc2)cc1)S(C)(=O)=O	i	-6.8	x	x	0.5	2.0	-0.2
CCCc1cc(=O)oc2c(C)c(OCC(=O)NCCCn3ccnc3)ccc12	i	-2.4	0.647	-19.1	3.0	-3.5	-1.7
Cn1c(=O)oc2cc(S(=O)(=O)N3CCN(Cc4ccc5c(c4)OCO5)CC3)ccc21	x	-8.4	0.724	3.8	2.6	-4.2	-11.1
O/N=C/c1cc(Br)ccc1OCc1ccccc1F	x	-1.8	x	x	-3.7	-2.6	3.2
CC1=C(C)CC(C(=O)Nc2nc(C)cs2)C(C(=O)O)C1 (centres undefined)	i	-10.9	0.705	2.3	-0.5	-2.2	1.8
O=C(NCc1ccc(Cl)cc1)c1ccc2ccccc2n1	i	0.3	0.662	4.0	2.7	6.9	-3.8
O=C(OCCN=C1NS(=O)(=O)c2ccccc21)c1cccc([N+](=O)[O-])c1	i	1.8	0.677	-0.6	0.7	2.1	-4.2
CC(C)C[C@H](NC(=O)N1c2ccccc2NC(=O)[C@@H]1C(C)C)C(=O)N1CCC[C@@H]1C(=O)O	i	x	0.689	4.0	2.2	-3.8	-1.5
CC(=O)c1ccc(N2CCN(C(=O)c3cccs3)CC2)c(F)c1	i	x	0.686	3.7	-4.6	-2.9	-1.4
O=C(O)CNC(=O)c1ccc2c(c1)OCCO2	x	1.2	0.647	0.3	2.4	-5.8	-4.1
Cc1ccc(S(=O)(=O)N[C@H](C(=O)N2CCC(C(=O)N[C@@H](CCC(N)=O)C(=O)O)CC2)C(C)C)cc1	i	1.1	0.737	3.3	-22.6	-0.3	-4.5
CCOC(=O)Cn1nc(C)c(NC(=O)COc2cccc(Cl)c2)c1C	i	-31.2	0.751	3.2	2.2	1.3	-3.9
COC(=O)N/N=C/c1sc(N2CCCCC2)nc1-c1cccs1	i	98.4*	x	x	15.7	4.6	-2.7
New compounds follow
SMILES	FGF22 binding	ALR H2O2 inh	Ecoli growth	UCH37 inh	HNF4A DNA FP	LANA-H2B inh	B2AR ag
CC(C)(C)C1CCCCC1NC(=O)c1ccncc1 (centres undefined)	i	-2.1	0.699	-0.1	-2.1	-1.1	-1.5
CC(=O)N1CC(C)Sc2ccc(S(=O)(=O)NCCc3ccccc3)cc21 (centres undefined)	i	-2.6	0.698	0.9	-0.2	0.8	9.2
CSCc1ccc(C(=O)NCC(c2cccs2)N2CCOCC2)cc1 (centres undefined)	i	-12.6	0.644	-1.2	-2.4	4.2	-2.4
COc1cc2c(cc1NC(=O)CN(C)Cc1ccc(OC)c(OC)c1)oc1ccccc12	i	-8.0	0.752	-162.2	3.8	-0.8	4.1
CN(C)c1ccc(/C=C2/C=C(c3ccc4c(c3)CCCC4)OC2=O)cc1	i	-6.7	0.689	15.4	45.4*	-2.5	-25.9
CCCNC(=O)C(Sc1ccccc1)c1ccccc1 (centres undefined)	i	0.0	0.685	3.7	-1.7	1.8	-5.5
O=C(CN1C(=O)S/C(=C\c2cccc(Cl)c2)C1=O)NC1C=CS(=O)(=O)C1 (centres undefined)	i	-2.5	0.682	1.1	-1.4	-0.8	-3.6
CC(=O)Nc1cccc(OCc2c(F)cccc2Cl)c1	i	11.5	0.665	5.0	1.3	-0.8	-5.0
CC(C)C(NC(=O)c1ccccc1)C(=O)OCC(=O)N1CCCC1 (centres undefined)	i	-3.2	0.646	-0.2	-1.4	-3.6	-2.6
Cc1cc2cc3c(cc2nc1SCC(=O)N1CCN(C(=O)c2ccco2)CC1)OCO3	x	-1.2	0.711	3.0	1.2	2.7	-4.9
CN(/N=C/c1ccncc1)c1cnc2ccccc2n1	i	-7.0	x	x	2.0	1.5	-1.1
O=C(Nc1cccnc1)C1CCCN(S(=O)(=O)c2cccc3nsnc23)C1 (centres undefined)	x	-1.1	0.7	7.2	2.3	3.4	-11.6
O=C(NCC1CCCO1)c1cc(-c2ccc(F)cc2)no1 (centres undefined)	i	-0.9	0.734	5.0	1.0	3.8	-1.4
O=C(CN1CCC2(CC1)OCCO2)c1c[nH]c2ccccc12	x	-0.7	0.689	2.4	x	4.9	x
COc1ccc(CN(C)C(C)C(=O)N(C)CC(=O)Nc2ccc(C)cc2)cc1F (centres undefined)	i	0.1	0.693	-2.4	0.6	2.0	3.5
COC(=O)c1ccc(CN2C(=O)c3ccccc3C2=O)cc1	i	-15.2	0.675	1.0	-0.4	0.5	-11.1
COc1ccccc1NC(=O)C(C)OC(=O)/C=C/c1ccc2ccccc2n1 (centres undefined)	i	94.3*	0.7	6.8	-1.0	2.2	-0.4
Cc1ccc(NC(=O)CSc2ncccn2)cc1S(=O)(=O)N1CCOCC1	i	x	0.705	3.6	-1.8	-4.4	3.1
Cc1cc(C)n2nc(C(=O)Nc3ccc4c(c3)CCC4)nc2n1	i	-2.8	0.732	-6.5	1.1	-5.4	-17.4
COc1cccc(NCc2cc(=O)oc3cc(C)c(C(C)C)cc23)c1	i	-11.2	0.685	1.0	-0.6	-2.0	3.1
O=C(CCN1CCN(c2ccccc2)CC1)NNC(=S)Nc1ccccc1Cl	i	47.6	0.728	4.7	1.5	-0.1	-3.2
CCN(C(=O)Cn1nc(C)n2c(cc3cc(C)ccc32)c1=O)c1ccccc1	i	2.5	0.675	-20.0	-3.9	-1.1	-3.8
CC[N+]1(CC)CC2=Cc3c(ccc4ccccc34)C(C)C2C1 (centres undefined)	i	-58.7	0.625	-2.0	-1.0	5.2	-0.7
O=C(Nc1ccccc1C(F)(F)F)c1cc(-c2ccccc2O)on1	x	10.2	0.707	4.3	-4.5	-0.6	-1.9
COc1ccc(C(=O)N(Cc2ccccc2)c2cccc(C)c2)cc1	i	-16.2	0.719	-0.2	-2.2	7.1	5.4
Additional structures:
SMILES	FGF22 binding	ALR H2O2 inh	Ecoli growth	UCH37 inh	HNF4A DNA FP	LANA-H2B inh	B2AR ag
O=C1CC(Cc2ccc(Br)cc2)C(=O)N1c1ccccc1 (centres undefined)	i	-2.1	0.592	1.6	0.9	-2.3	-5.4
O=S(=O)(CCc1nc2ccccc2[nH]1)c1ccc(Br)cc1	x	x	0.682	5.9	2.7	x	-8.3
O=C(Nc1ccccc1C(=O)NCc1cccnc1)c1ccco1	x	-0.5	0.765	4.5	-2.3	4.4	0.8
CCn1c(CNC(=O)c2ccco2)nnc1SCC(=O)c1ccccc1	i	45.4	0.718	1.4	2.4	-1.3	-7.5
COc1ccc(-c2nnc(SCC(=O)Nc3cc(S(=O)(=O)N4CCCCC4)ccc3Cl)n2N)cc1	x	-5.9	0.676	-1.9	0.3	-3.1	-9.7
COc1ccc2nc(N3CCCC(C(=O)NCCCN4CCN(C)CC4)C3)sc2c1 (centres undefined)	x	u	0.673	1.0	-0.5	2.0	0.6
CCC(C)NC(=O)CSc1nnc(-c2cc(-c3cccs3)nc3ccccc23)o1 (centres undefined)	x	-11.8	0.675	-29.6	1.9	6.0	0.3
CCCc1cc(=O)oc2cc(C)c(CN3CCCC3)c(O)c12	x	3.5	0.7	-11.1	-1.8	1.7	10.8
Cc1ccc(-n2c(-c3ccccc3)n[nH]c2=S)cc1	x	12.1	0.727	2.1	4.2	4.2	-4.3
Nc1cccc2cccc([N+](=O)[O-])c12	i	x	x	x	-1.0	x	6.2
CCNC(=S)N1CCN(C(=O)C(Cc2ccccc2)NC(C)=O)CC1 (centres undefined)	i	-7.1	0.676	0.9	0.7	-1.1	1.7
C/C(N)=N\S(=O)(=O)c1ccc(Cl)cc1	i	x	0.678	4.6	4.3	-0.5	13.3
CCn1c(C)csc1=NC(=O)c1ccccc1	x	69.7	0.684	-0.7	3.3	-0.9	-3.3
Cn1c(=O)c2c(nc3n2CCS3)n(C)c1=O	i	-7.0	0.708	1.0	-0.8	7.7	1.5
Cc1nn(CC(=O)OCC(=O)Nc2cccc(S(N)(=O)=O)c2)c(C)c1[N+](=O)[O-]	i	1.7	0.694	0.9	6.1	6.9	-10.9
Cc1ccc(C(=O)c2ccccc2C(=O)O)c(O)c1	i	-0.9	0.681	1.5	-2.9	2.5	-3.0
CCOc1cc(C)nc(N2CCC(C(=O)Nc3ccccc3OCC)CC2)n1	x	-4.3	0.718	-0.2	2.5	-6.7	-0.3
O=C(O)C1C2CCC(C2)C1C(=O)Nc1ccc(Cl)c(Cl)c1 (centres undefined)	i	9.0	0.711	4.4	-4.1	7.2	-2.4
Fc1ccc(CNc2nc(-c3cccnc3)nc3ccccc23)cc1	i	-1.5	0.657	0.9	7.9	-1.2	-18.1
Cc1ccc(S(=O)(=O)N(C)c2ccc(C(=O)NCc3cccnc3)cc2)cc1	i	-0.5	0.666	3.1	0.6	-5.7	-10.6
O=C(Nc1nccs1)c1ccc(-c2ccccc2[N+](=O)[O-])o1	i	-32.6	0.647	5.9	-4.9	3.7	2.0
COc1cc(C)cc(C(=O)O)c1C1=C(O)c2cccc(O)c2C(=O)C1=O	i	-24.4	0.752	6.1	-20.5	-3.0	-3.2
O=C(COc1ccc(Br)cc1)NCCO	i	-28.5	0.721	1.1	4.2	-3.9	8.7
COc1ccc(C(=O)NCc2nnc(SCC(=O)N3CCCC3)o2)cc1OC	i	-13.3	0.628	-0.7	-2.0	2.8	9.5
O=C(c1ccncc1)N1CCN(S(=O)(=O)c2cc(C(F)(F)F)cc(C(F)(F)F)c2)CC1	i	-17.2	0.672	2.7	5.7	-1.3	5.1

High-throughput results (PubChem)

Only part of the results is shown; the hit share may differ from the screen's.
